VACV Venus inh – inhibitors of vaccinia virus (Venus reporter) | Vaccinia virus Venus reporter expression, fluorescence | Potency, µM (doses to about 36.5 µM), for the others: at the top dose activity change, negative = inhibition, hits mostly inhibitors | 330,000 compounds, 0.46% hits; active means well fitted inhibition curve with a large enough effect; inconclusive means small, poorly fitted or top-dose-only effect; inactive means no such curve, though single readings can be large or run the other way; tested in A549 cells; further: nearly all actives have a fitted effect of over 30% in size; inactives centre near -10
VACV mCherry inh – vaccinia inhibition (mCherry reporter); Potency, µM (top dose mostly 36.5 µM), for inactives: at the top dose activity change, negative = inhibition, usual class: inhibitors; Vaccinia virus mCherry reporter infection, fluorescence; about a quarter of the inactives have no number; 310,000 compounds, 0.63% hits; active = well fitted inhibition curve with a large enough effect; inconclusive = small, poorly fitted or top-dose-only effect; inactive = no such curve, though single readings can be large or run the other way; tested in A549 cells; further: nearly all actives have a fitted effect of over 35% in size; inactives centre near -10
* = called active by the depositor; i = inactive; ? = inconclusive; . = no result given; & = joins results of further samples; [ ] = another dose, or the depositor's remark. On the % scale 0 is the no-effect control and ±100 the full control effect; potency means the concentration at half of the fitted maximal effect.

SMILES	VACV Venus inh	VACV mCherry inh
COC(=O)c1ccc(C(=O)NC2CC(C)(C)Cc3c2cnn3-c2ccc(F)cc2)nc1 (stereo not given)	-12.3%	i
Cc1noc(C)c1COc1ccc(C(=O)N2CCC(C)CC2)cc1	-16.3%	-17.5%
O=C(CCc1ccccc1)N(Cc1cccnc1)c1nc2c(F)cc(F)cc2s1	-12.8%	-14.0%
O=C(CCC(=O)Nc1ccccc1Cl)N/N=C/c1c[nH]c2ccccc12	-9.6%	i
CCOc1ccc(CCN2C(=O)C(=O)N([C@@H](Cc3ccccc3)CN3CCC[C@H]3CN3C(=O)C(=O)NC[C@@H]3Cc3ccccc3)C[C@@H]2Cc2ccccc2)cc1	?	?
O=C(O)CC(CP(=O)(c1ccccc1)c1ccccc1)C(=O)O (stereo not given)	-10.2%	-14.6%
Cc1cc(-c2ccccc2)cc(=O)[nH]1	-4.7%	-13.6%
O=C(CN1c2cccc3cccc(c23)S1(=O)=O)Nc1c(F)c(F)c(F)c(F)c1F	-10.6%	-17.3%
COc1ccc(N)c2c1C(=O)c1ccccc1C2=O	94.7%[activator]	77.2%[activator]
CC(C)(C)SCCNC(=O)c1cccc([N+](=O)[O-])c1	-27.8%	i
CC1=C(C(=O)OCC2CCCO2)C(c2coc3ccc(Cl)cc3c2=O)C2=C(CCCC2=O)N1 (stereo not given)	-0.9%	-9.3%
CC(=O)N(C(C)=O)n1c(C)nc2sc3c(c2c1=O)CCCC3	-11.1%	i
O=C(OCC(=O)N1CCCC1)c1c(Cl)cccc1Cl	-1.4%	i
Cc1ccc(NC(=S)Nc2cccc3cnccc23)cc1	-11.5%	-3.9%
COc1ccc(OCCC(=O)Nc2nccs2)cc1	-4.7%	-10.6%
Cc1c(C(=O)Nc2ccc(F)cc2)oc2ccc(S(=O)(=O)N3CC(C)CC(C)C3)cc12 (stereo not given)	-5.6%	-2.7%
CCNC(=O)C1(C)CCCN(C(=O)c2csc3ccccc23)C1 (stereo not given)	-8.0%	31.9%[activator]
CCC(NC(=O)Nc1cccc(C)c1)c1c(-n2cccc2)sc2c1CCN(C)C2 (stereo not given)	-15.2%	-16.4%
COc1ccc(-c2coc3c(C(=O)NCc4ccc(C(F)(F)F)cc4)cccc23)c(C)c1	-20.9%	13.1%
CCc1ccc(NS(=O)(=O)c2ccc(OC)c3ncccc23)cc1	-9.4%	-16.7%
COc1ccc(Br)cc1C(=O)Nc1nnn(C)n1	-1.3%	-17.7%
S=C(Nc1ccccc1)N1CCN(C(=S)c2ccccc2)CC1	-6.8%	-25.9%
CC1CCC(NC(=O)c2ccc(COc3ccccc3)o2)CC1 (stereo not given)	-8.5%	-9.9%
CCOC(=O)CSc1nc2sc(C(=O)O)c(C)c2c(=O)[nH]1	-3.4%	i
CCc1nc(SCC(=O)NCCc2ccccc2)n[nH]1	-1.2%	.

Individual results from above.
COc1ccc(OCCC(=O)Nc2nccs2)cc1 @ VACV Venus inh: -4.7%
O=C(OCC(=O)N1CCCC1)c1c(Cl)cccc1Cl @ VACV Venus inh: -1.4%
O=C(CCc1ccccc1)N(Cc1cccnc1)c1nc2c(F)cc(F)cc2s1 @ VACV mCherry inh: -14.0%

Profiles, looked up by structure. Order of values: VACV Venus inh | VACV mCherry inh
`CCc1ccc(NS(=O)(=O)c2ccc(OC)c3ncccc23)cc1` in the list: -9.4% | -16.7%
`COc1ccc(OCCC(=O)Nc2nccs2)cc1` in the list: -4.7% | -10.6%

The main list resumes with the five entries that preceded the break.
SMILES	VACV Venus inh	VACV mCherry inh
COc1ccc(Br)cc1C(=O)Nc1nnn(C)n1	-1.3%	-17.7%
S=C(Nc1ccccc1)N1CCN(C(=S)c2ccccc2)CC1	-6.8%	-25.9%
CC1CCC(NC(=O)c2ccc(COc3ccccc3)o2)CC1 (stereo not given)	-8.5%	-9.9%
CCOC(=O)CSc1nc2sc(C(=O)O)c(C)c2c(=O)[nH]1	-3.4%	i
CCc1nc(SCC(=O)NCCc2ccccc2)n[nH]1	-1.2%	.
CCn1c(-c2ccccc2F)nc2cc(NC(C)=O)cc(C(=O)N3CCCCC3c3nccn3C)c21 (stereo not given)	20.1%	19.0%
CC1Cc2ccccc2N1C(=O)C1CCN(S(=O)(=O)Cc2ccccc2)CC1 (stereo not given)	-14.0%	-18.3%
COc1ccc(C(=O)c2sc3nc(C)cc(-c4cccs4)c3c2N)cc1	?	?
FC(F)(F)C(F)(F)c1nnc2ccc(-n3ccnc3)nn12	-9.5%	i
O=C(NC(c1ccc(Cl)cc1)c1c(O)ccc2ccccc12)c1ccccc1 (stereo not given)	?	10µM*
CC(NCc1ccccc1Cl)C(=O)Nc1ccc(C#N)cc1 (stereo not given)	-6.8%	-9.7%
CC1CCN(S(=O)(=O)c2ccc(NC(=O)CN3CCN(c4ccccc4)CC3)cc2)CC1	-14.1%	i
CC12C(=O)N(c3nccs3)C(=O)C1(C)C1CCC2O1 (stereo not given)	?	?
CCN1C(=O)C(CC(=O)Nc2ccc(OC)cc2)N(CCc2ccc(OC)cc2)C1=S (stereo not given)	-20.4%	-30.0%
Cc1ccc(C)c(NC(=O)c2cc(-c3ccccc3)nn2-c2ccccc2)c1	-19.2%	-27.3%
CCOCCOCCC(C(=O)OCC)P(=O)(c1ccccc1)c1ccccc1 (stereo not given)	-11.5%	-12.4%
CCCN1CCN(C(=O)C(NC(=O)c2ccco2)C(C)C)CC1 (stereo not given)	-13.7%	i
O=C(Nc1ccc(Cl)cc1)C1CCCCN1S(=O)(=O)c1ccccc1 (stereo not given)	10µM*	?
O=C(OCC(=O)N(Cc1ccccc1)Cc1ccccc1)c1ccccc1NCCO	-16.1%	-4.3%
O=C(CCl)NCC1CCCO1 (stereo not given)	2.8%	i
COc1cccc(CNC(=O)C2CCN(c3nnc(N4CCCC4=O)s3)CC2)c1	-16.4%	i
C=CC(=O)NC1CC2CCC1(C)C2(C)C (stereo not given)	-9.2%	-3.1%
CCSc1nc2ccccc2n1C(=O)c1ccc(S(=O)(=O)N2CCCCCC2)cc1	-13.7%	-8.8%
CCOC(=O)c1nc(Nc2ccccc2C)c2ccccc2n1	-11.1%&-10.1%	-14.6%
Cn1c(NN)nc2sc3c(c2c1=O)CC(C)(C)OC3	?	-29.6%
CCN(CC(=O)NCc1ccc(Cl)cc1)CC(=O)NC1(C#N)CCCC1	-9.8%	-5.8%
O=C(NC1CC1)C1CCN(S(=O)(=O)c2ccc(Cl)cc2)CC1	0.2%	i
O=c1[nH]c2c(c(=O)[nH]1)OCN(Cc1ccccc1)C2	-4.7%	i
CCCCNC(=O)c1ccc2c(=O)n(Cc3ccc(OC)cc3)c(=O)[nH]c2c1	-2.2%	-5.1%
CC1Sc2ccc(S(=O)(=O)CCC(=O)N3CCCCC3)cc2NC1=O (stereo not given)	-15.2%	-19.8%

(continued)
SMILES	VACV Venus inh	VACV mCherry inh
CC(C)Nc1ncnc2c1ncn2[C@H]1CN(C2CCCC2)C[C@@H](CO)O1	-8.6%	14.6%
O=C(Nc1ccc(OC(F)(F)F)cc1)NC1CCC(Oc2ccc(C(=O)O)cc2)CC1 (stereo not given)	-3.6%	-3.1%
c1csc(-c2nn3c(C4COc5ccccc5O4)nnc3s2)c1 (stereo not given)	-5.9%	-3.1%
Cc1cccc(NC(=O)COc2coc(CN3CCN(Cc4ccccc4)CC3)cc2=O)c1	-16.1%	-21.7%
O=C(CSc1nncs1)Nc1cccc2ccccc12	-11.4%	-12.1%
O=C(OCC1CCCO1)c1ccc2c(c1)N(Cc1ccccc1)C(=O)c1ccccc1S2(=O)=O (stereo not given)	6.6%	8.9%
COc1ccc(-n2c(=S)[nH]c3cc(C(=O)Nc4cccc(C)c4)ccc3c2=O)cc1	-10.8%	-15.0%
CCOC(=O)C1CCN(C(=O)CNC(=O)c2nn(-c3ccc(OC)cc3)c(=O)c3ccccc23)CC1	-13.2%	-3.6%
Cc1ccc(/C=C/c2onc(C)c2S(=O)(=O)N2CCC(C(=O)NCc3ccc(N(C)C)cc3)CC2)cc1	-7.5%[7.34 µM]	-8.7%[7.34 µM]
O=C(CC1CC1)Nc1ccc2c(c1)[C@@H]1C[C@H](CC(=O)NC3CCCC3)O[C@@H](CO)[C@@H]1O2	-14.9%	i
Cc1ccccc1OCC(=O)NCC(=O)N/N=C/c1ccc(Br)o1	-7.2%	i
Cc1cccn2c(=O)c3cc(C(=O)NC4CCCCCC4)sc3nc12	0.0%	i
COc1ccc(CCN2C(=O)CS/C2=N\NC(=O)c2cccs2)cc1OC	-17.3%	-12.0%
COc1ccccc1CNC(=O)C1CCN(S(=O)(=O)c2ccc(-n3cnnn3)cc2)CC1	-1.4%	-13.0%
COc1ccc(C(=O)Nc2nc3nc(C)c(Cl)c(=O)n3[nH]2)cc1	-8.3%	-9.8%
Cc1ccsc1C(=O)Nc1n[nH]c(C(F)(F)F)n1	-9.0%	i
COc1cc(CN2CCCC(N3CCc4ccccc4C3)C2)c(Cl)cc1O (stereo not given)	-8.7%	?
CC(=O)N1N=C(c2ccccc2O)CC1c1cccs1 (stereo not given)	0.8%	-15.3%
O=C(CN(Cc1ccccc1)S(=O)(=O)c1ccc2c(c1)OCCO2)Nc1ccc2c(c1)OCCO2	-21.2%	-15.6%
CCOC(=O)C1(CCc2ccccc2)CCN(C(=O)CN2C(=O)CSC2=O)CC1	-3.3%	-3.3%
O=C(O)c1c(C(=O)O)c(-c2ccc(Br)cc2)n2c1CSC2	-14.3%	i
Cc1cc(SCC(=O)Nc2c(C)n(C)n(-c3ccccc3)c2=O)nc2ccccc12	-23.2%	-7.6%
Cc1ccccc1Oc1nc2c(C)cccn2c(=O)c1/C=C(\C#N)C(=O)Nc1c(C)n(C)n(-c2ccccc2)c1=O	-8.4%	i
O=c1c2cn(Cc3ccc(F)cc3)c3ccc(F)cc3c-2nn1Cc1ccc(F)cc1	-2.4%	i
CC(NC(=O)C1CCC1)c1ccc(Br)cc1 (stereo not given)	-10.1%	-0.8%

(further entries)
SMILES	VACV Venus inh	VACV mCherry inh
CCCNC(=O)c1cc(C2CCCN(S(=O)(=O)c3cccs3)C2)on1 (stereo not given)	-13.4%	-7.7%
O=C(Nc1ccc(C(=O)N2CCCC2)cc1)C1CCCC1	-9.3%	-3.3%
CC(C)CN(C(=O)CN1CC=C(c2ccccc2)CC1)c1c(N)n(CC(C)C)c(=O)[nH]c1=O	5.7%	-8.7%
O=C(Nc1cc2c(cc1C(=O)c1ccccc1)OCCO2)c1ccc(Br)cc1	?	?
O=c1ccn([C@@H]2O[C@H](COP(=O)(O)OP(=O)(O)O)[C@@H](O)[C@H]2O)c(=O)[nH]1	-13.1%	0.0%
CCc1ccc2[nH]c(=O)c(CN(Cc3ccc4c(c3)OCO4)Cc3nnnn3C3CCCC3)cc2c1	?	?
Cc1nn(CC(=O)Nc2ccncc2)c(C)c1[N+](=O)[O-]	-2.7%	-11.4%
O=C(Nc1ccccc1)C1CCCN1C(=O)NCc1ccccc1 (stereo not given)	-10.4%	-15.5%
C=CCNc1nc(NCCN2CCOCC2)nc(N2CCOCC2)n1	-6.4%	-7.5%
Cc1ccc(C)c(N2CCN(S(=O)(=O)c3cc4c(cc3C)NC(=O)CO4)CC2)c1	-9.5%	-16.6%
CCN(C(=O)COC(=O)c1cncc(Br)c1)C1CCS(=O)(=O)C1 (stereo not given)	-13.0%	-1.4%
CC(=O)OC1C=CN(C(C)=O)C(SC(C)(C)C)C1(C)O (stereo not given)	-4.2%	i
COc1ccc(C2COC(=O)C2=N)c(NC(=O)c2ccc(Cl)cc2)c1 (stereo not given)	-9.7%	-8.5%
O=C(Nc1ccc(F)cc1)c1nsc(Cl)c1Cl	-12.4%	.
CCCN(CC1CCCO1)C(=O)CCc1nnc(-c2cc(C)on2)o1 (stereo not given)	3.5%	i
O=C(O)CCN1/C(=C/C=Nc2ccccc2)Oc2ccccc21	21.2%	.
COCCCNS(=O)(=O)c1ccc(N2CCCCS2(=O)=O)cc1	-8.9%	-10.9%
O=c1cc(CSc2nc3ccccc3c(=O)[nH]2)c2ccc(O)cc2o1	-5.3%	-14.4%
CCCc1[nH]n(-c2nc3ccccc3s2)c(=O)c1C=NCCCOC	2.0%	1.6%
O=C(O)c1cc(NS(=O)(=O)c2ccc(N3CCCCC3)c([N+](=O)[O-])c2)cc(C(=O)O)c1	-11.1%	-8.6%
O=C(O)CCN1C(=O)C2C3c4ccccc4C(c4ccccc43)C2C1=O (stereo not given)	-3.1%	-15.0%
CC(OC(=O)c1ccccc1OCCOc1ccccc1)C(=O)Nc1ccc(Br)cc1 (stereo not given)	-15.4%	-12.6%
COc1cc(NC(=O)c2ccc3c(SCC(=O)O)c4c(nc3c2)CCC4)cc(OC)c1OC	-8.7%[7.34 µM]	-11.0%[7.34 µM]
NC(=O)C1CCN(CC(=O)Nc2cccc(C(=O)Nc3cccc(C(F)(F)F)c3)c2)CC1	-9.0%	-8.7%
COc1ccc(CC(=O)Nc2cccc3ccccc23)cc1OC	-5.1%	i

(listing goes on)
SMILES	VACV Venus inh	VACV mCherry inh
COc1ccc(NC(=S)Nc2ccc3nccnc3c2)cc1	?	-13.3%
Cc1c(C(=O)NCc2ccc(Cl)cc2)sc2nc3n(c(=O)c12)CCCC3	-12.2%	-17.6%
O=C1N(CCCCN2C(=O)C3(OCCO3)c3ccccc32)c2ccccc2C12OCCO2	-20.3%	.
COc1ccc(N2CCN(c3ncnc4scc(-c5ccc(C)cc5)c34)CC2)cc1	-5.8%	-15.7%
O=S(=O)(/C=C/c1ccccc1)n1cnc2ccccc21	-12.1%	.
CC(C)NS(=O)(=O)c1ccc(OCC(=O)NCc2ccc3c(c2)OCO3)c(Cl)c1	-16.4%	.
CCOC(=O)CSc1nc2ccccc2c(=O)n1CC1CCCC1	-7.1%	-8.0%
COc1cccc(-n2c(=S)sc3c(=O)n(-c4ccccc4OC)c(=S)[nH]c32)c1	-14.1%	-29.2%
CN(CCO)c1nc(-c2cccs2)nc2ccccc12	-8.1%	-11.8%

Assay outcomes (PubChem)
